# 2A firefly = lowers the firefly signal of an FMDV 2A StopGo reporter. HEK cells with a luciferase reporter of 2A StopGo recoding. Potency, µM (doses to about 57.5 µM), inactives show at the top dose signal change, negative = less light. 120,000 compounds, 0.23% hits. AID 1745856; active = well fitted falling curve with a large enough effect; inconclusive = small, poorly fitted or top-dose-only effect; inactive = no such curve, though single readings can be large or run the other way; note: nearly all actives have a fitted effect of over 60% in size; overnight with compound
# 2A Renilla = lowers the Renilla signal of an FMDV 2A StopGo reporter; HEK cells with a luciferase reporter of 2A StopGo recoding; Potency, µM (top dose mostly 57.5 µM), for the others: top-dose signal change, negative = less light; 120,000 compounds, 0.32% hits; active means well fitted falling curve with a large enough effect; inconclusive means small, poorly fitted or top-dose-only effect; inactive means no such curve, though single readings can be large or run the other way; note: nearly all actives have a fitted effect of over 55% in size; overnight with compound
# * hit, by the source's call; ? = inconclusive; & = joins results of further samples; [ ] = another dose, or the depositor's remark. % is set by controls: 0 for no effect and ±100 for the full control effect; potency is the fitted concentration of half-maximal effect.
SMILES,2A firefly,2A Renilla
Cc1ccc(C(=O)c2ccccc2C(=O)OCc2ccccc2C#N)cc1,84%[activator],146%[activator]
Oc1c(C(c2ccc(F)cc2)N2CCOCC2)sc2nc(-c3ccco3)nn12 (stereo not given),-13%,9%
FC(F)(F)c1ccc(Sc2ccc(C(F)(F)F)cn2)nc1,1%,7%
COc1ccc(CNC(=O)c2scnc2C)cc1,0%,5%
COCCCNC(=O)c1ccc2nc(Cc3ccc(OC)cc3)oc2c1,-23%,3%
COC1/C=C\OC2(C)Oc3c(C)c(O)c4c(c3C2=O)C2(C=C(NC(=O)/C(C)=C\C=C/C(C)C(O)C(C)C(O)C(C)C(OC(C)=O)C1C)C4=O)OCC(=O)O2 (stereo not given),0%,-3%
CC(C)NC(=O)CN(C)Cc1coc(-c2ccc(Cl)cc2)n1,15%,-28%
CCOc1ccc(-c2nonc2NC(=O)c2oc3ccc(CC)cc3c2C)cc1,-1%,8%
Cc1ccc(S(=O)(=O)CCC(=O)OCC(=O)c2ccc3c(c2)-c2ccccc2C3)cc1,0%,6%
CCc1ccccc1N/N=C(/c1ccccc1)c1ccc(Br)cc1,13%,5%
Cc1ccc(NC(=O)/C=C\C(=O)N(c2ccc(C(C)C)cc2)C(C(=O)NCc2ccco2)c2ccc(Cl)cc2)cc1 (stereo not given),-20%,-10%
Cc1ccc(C(=O)N(Cc2ccco2)Cc2sccc2C)cc1,-19%,146%[activator]
O=C(O)c1cc(-c2ccccn2)nc2ccccc12,29%&0%,-5%&2%
CCc1cc2c(=O)c(-c3nncn3-c3ccccc3)coc2cc1OCC(=O)NCC(=O)O,5%,-3%
CC1(C)OC[C@@H](COC(=O)CCc2ccc(OC[C@@H](O)CNCCNC(=O)N3CCOCC3)cc2)O1,-9%,-10%
CCOc1ccc(N(CC)S(=O)(=O)N2CCCC(C(=O)Nc3cc(Cl)ccc3OC)C2)cc1 (stereo not given),-15%,-8%
CCOCCc1nn2c(=O)cc(COC(=O)c3ccccc3NC(=O)c3cccs3)nc2s1,-17%,-14%
O=C(CCc1ccccc1)Nc1cccc2cccnc12,205%[activator],27%
CCOc1ccc(NC(=O)c2c(Nc3ccccc3C)sc(C(=O)c3ccc(Cl)cc3)c2N)cc1,1%,54%[activator]
COc1ccc(NC(=O)CCc2nc(-c3ccc(C)cc3)no2)cc1S(=O)(=O)N1CCOCC1,-1%,?
CC(C)c1ccc(C2c3c(oc4ccc(Cl)cc4c3=O)C(=O)N2CCCN2CCOCC2)cc1 (stereo not given),63%[activator],8%
CCc1ccc(NC(=O)CCc2c(C)nn(-c3ccc(N4CCCC4)nn3)c2C)cc1,98%&33%[activator],10%&5%
COc1cccc(CNC(=O)c2ccc(-n3c(C)cc4c3CCC(C)C4)cc2)c1 (stereo not given),14%,15%
O=C(CSC1CCCC1)NCCc1cccs1,84%[activator],14%
COc1cc(CN(C(=O)c2ccc3c(c2)NC(=O)CO3)C2CC2)ccc1OC(F)F,-22%,-18%
Cc1ccc(C(=O)NCC(=O)NCCN2CCc3ccccc3C2)cc1,-4%,-7%
CCOC(=O)c1c(C)[nH]c(C)c1S(=O)(=O)N1CCCC(C(=O)NCc2ccc(N(C)C)cc2)C1 (stereo not given),-14%,46%[activator]
CCCn1nc(C(=O)OCC(=O)c2cc(C)n(Cc3ccc(F)cc3)c2C)c2ccccc2c1=O,-7%,-12%
COc1ccc(COCC(O)COc2ccccc2-c2nc3ccccc3s2)cc1 (stereo not given),0%,7%
O=C(Nc1ccc(C(=O)N2CCCCC2)cc1)c1nsc2ccccc12,-14%,4%
COc1ccc(C23CC4CC(CC(C(=O)Nc5nc(C)cs5)(C4)C2)C3)cc1,?,?
Cc1cc(OCCn2c(C3CC(=O)N(Cc4ccc(F)cc4)C3)nc3ccccc32)ccc1Cl (stereo not given),?,?
NC(=O)C1CCN(c2ncnc3c2cnn3-c2ccccc2)CC1,31%[activator],-5%
Cc1cc2cc(NS(=O)(=O)c3cc(F)ccc3F)ccc2[nH]1,0%,66%[activator]
COc1ccc(-n2ncc(C(=O)N3CCN(c4ccccn4)CC3)c2C2CCN(C(=O)OC(C)(C)C)CC2)cc1,-14%,-9%
CN(Cc1ccsc1)C(=O)CC1CCCC1,10%,3%
Cc1ccc(CNC(=O)CC2C=CCC2)s1 (stereo not given),54%[activator],10%
CCCn1nc(C(=O)OCC(=O)Nc2ccc(C)c(C)c2)c2ccccc2c1=O,-4%,-3%
Cc1cc2c(cc1C)CSC(c1cc(Cl)ccc1O)SC2,-15%,23%
CCN(CC)C(=O)C(c1ccccc1)N1CCN(S(=O)(=O)c2cccs2)CC1 (stereo not given),-2%,1%
CCN(CC)CCNC(=O)c1ccc(NC(=O)c2cc(-c3ccco3)nc3ccccc23)cc1,103%[activator],50%[activator]
CC(=O)N1CCc2cc(CNC(=O)Nc3cc(Cl)ccc3C)ccc21,-20%,-14%
CC(C1=C(O)CC(C)(C)CC1=O)C1=C(O)CC(C)(C)CC1=O,0%,17%
COc1ccc(NC(=O)COc2ccccc2C)c2cccnc12,?,14µM*
O=C(Cc1c[nH]c2ccccc12)N1CCN(C(c2ccccc2)c2ccccc2)CC1,-25%,-5%
Cc1ccccc1CCNC(=O)c1ccc2c(c1)nc1n2CCC(C)C1 (stereo not given),101%[activator],4%
Nc1nnnn1Cc1nnc(SCc2cccc(Cl)c2)n1-c1ccccc1,-8%,-46%
CCOC(=O)c1cc(-c2ccccc2)n(CCC(=O)NC2CCCCC2)c1C,-9%,24%
CC(O)CN(CCN(CC(C)O)CC(C)O)CC(C)O (stereo not given),-9%[11.5 µM],-8%
CC(=O)c1ccc(N2C(=O)N(CC(=O)c3ccc(C)cc3)c3ccccc3S2(=O)=O)cc1,-13%,0%
COc1ccc(Cl)cc1C(=O)Nc1c2c(nn1-c1ccc(Cl)cc1)CS(=O)(=O)C2,-26%,-17%
Cc1cccc(NC(C)C(=O)Nc2sccc2C#N)c1C (stereo not given),0%,4%
COc1ccc(-c2nc3ccccc3n3c(-c4cccc(C)c4)c4c(=O)n(C)c(=O)n(C)c4c23)cc1OC,-7%,16%
Cc1ccc(-n2cccc2/C=C(/C#N)c2ccc(F)cc2)cc1,22%,18%
Cc1cc(NC(=O)c2cccnc2)cc(-c2nc3cc(Cl)ccc3o2)c1O,-19%,-8%
COc1ccc(CNC(=O)c2csc(NCc3ccccc3)n2)cc1,79%[activator],-5%
Cc1nc(-c2ccccc2)sc1CCNC(=O)C(=O)Nc1ccc(F)c(Cl)c1,0%,-6%
CC/C=C(/C)C(=O)NCc1ccc(C)s1,56%[activator],6%
Cc1ccc(C)c(NC(=O)CCn2nc(C)c3c(C)n(-c4ccccc4)nc3c2=O)c1,6%,0%
COc1ccccc1C(=O)Nc1cc2c(cc1N1CCCCC1)n(C)c(=O)n2C,-11%,-12%

# Next records follow:
SMILES,2A firefly,2A Renilla
CCCN1CCS(=O)(=O)N(Cc2cn(Cc3ccc(Cl)cc3)nn2)C(C(=O)OC)C1 (stereo not given),-11%,-18%
CC(C)C(C)NC(=O)c1ccc(CNC(=O)OC(C)(C)C)cc1 (stereo not given),4%,-7%
Cc1nn(C)c2c1c(C(F)(F)F)cc(=O)n2C(C)C(=O)Nc1ccccc1F (stereo not given),3%,-8%
COc1cccc(NC(=O)c2ncoc2-c2ccc(OC)c(OC)c2)c1,39%[activator],15%
COC(=O)c1c(NC(=O)/C(C#N)=C/c2ccccc2)sc2c1C(C(=O)OC)CC2 (stereo not given),-18%,-18%
Cc1csc(NC(=O)c2occc2-c2ccccc2)n1,277%[activator],21%
COCC(C)n1c(C)cc(C(=O)Cn2cnc3c2c(=O)n(C)c(=O)n3C)c1C (stereo not given),5%,0%
COc1ccc(C(=O)n2nc(-c3ccco3)nc2NCc2cccs2)cc1,42%[activator],-3%
Cn1nnnc1SCCCNCc1cccc(OCc2ccccc2Cl)c1,31%[activator],41%[activator]
Cc1ccc(/C=C/c2onc(C)c2S(=O)(=O)N2CCC(C(=O)NCc3ccc(OC(C)C)cc3)CC2)cc1,6%,6%
O=c1cc(CSc2nnnn2-c2ccccc2)[nH]n1-c1ccc(F)cc1,-4%,-10%
COc1ccccc1C(=O)N1CCN(c2oc(-c3ccc(Cl)cc3)nc2C#N)CC1,10%,-2%
Cc1onc(-c2ccccc2)c1-c1nnc(CSc2nnnn2C(C)(C)C)o1,7%,35%[activator]
Cc1nc2c(-c3ccccc3)c(C)nn2c(C)c1CCC(=O)NCc1ccccc1,-4%,-3%
Cc1cccc(NC(=O)CS(=O)(=O)c2cccc3nsnc23)c1,?,-27%
CC(=O)NCCCNC(=O)c1cc(-c2ccccc2)nc2ccccc12,24%,24%
Cc1cccc(OCC(O)CNC(C)(C)C)c1C (stereo not given),-3%[11.5 µM],-12%
Cc1nc(-c2ccc(CCNC(=O)c3nccnc3N)s2)cs1,26%,?
CNc1nnc(SCc2ncc(-c3ccccc3)o2)s1,167%[activator],5%
CCOC(=O)c1ccccc1NC(=O)c1cn(CC(C)C)c(=O)c2cc(OC)c(OC)cc12,-8%,3%
CCCOc1ccc(NC(=O)C(CC)Oc2ccc(F)cc2)c2cccnc12 (stereo not given),19%,1%
O=C(O)CCC(=O)OC[C@@H](NC(=O)C(Cl)Cl)[C@H](O)c1ccc([N+](=O)[O-])cc1,-20%,-11%
CC(OC(=O)Cn1cnc2c1c(=O)n(C)c(=O)n2C)C(=O)Nc1ccc(F)cc1 (stereo not given),37%[activator],-10%
CCCSCCCNC(=O)c1ccc2c(c1)sc1nc(-c3ccc(OCC)cc3)cn12,8%,-6%

# Nothing new here: 18 of the compounds above.
SMILES,2A firefly,2A Renilla
COCC(C)n1c(C)cc(C(=O)Cn2cnc3c2c(=O)n(C)c(=O)n3C)c1C (stereo not given),5%,0%
COc1ccc(C(=O)n2nc(-c3ccco3)nc2NCc2cccs2)cc1,42%[activator],-3%
Cn1nnnc1SCCCNCc1cccc(OCc2ccccc2Cl)c1,31%[activator],41%[activator]
Cc1ccc(/C=C/c2onc(C)c2S(=O)(=O)N2CCC(C(=O)NCc3ccc(OC(C)C)cc3)CC2)cc1,6%,6%
O=c1cc(CSc2nnnn2-c2ccccc2)[nH]n1-c1ccc(F)cc1,-4%,-10%
COc1ccccc1C(=O)N1CCN(c2oc(-c3ccc(Cl)cc3)nc2C#N)CC1,10%,-2%
Cc1onc(-c2ccccc2)c1-c1nnc(CSc2nnnn2C(C)(C)C)o1,7%,35%[activator]
Cc1nc2c(-c3ccccc3)c(C)nn2c(C)c1CCC(=O)NCc1ccccc1,-4%,-3%
Cc1cccc(NC(=O)CS(=O)(=O)c2cccc3nsnc23)c1,?,-27%
CC(=O)NCCCNC(=O)c1cc(-c2ccccc2)nc2ccccc12,24%,24%
Cc1cccc(OCC(O)CNC(C)(C)C)c1C (stereo not given),-3%[11.5 µM],-12%
Cc1nc(-c2ccc(CCNC(=O)c3nccnc3N)s2)cs1,26%,?
CNc1nnc(SCc2ncc(-c3ccccc3)o2)s1,167%[activator],5%
CCOC(=O)c1ccccc1NC(=O)c1cn(CC(C)C)c(=O)c2cc(OC)c(OC)cc12,-8%,3%
CCCOc1ccc(NC(=O)C(CC)Oc2ccc(F)cc2)c2cccnc12 (stereo not given),19%,1%
O=C(O)CCC(=O)OC[C@@H](NC(=O)C(Cl)Cl)[C@H](O)c1ccc([N+](=O)[O-])cc1,-20%,-11%
CC(OC(=O)Cn1cnc2c1c(=O)n(C)c(=O)n2C)C(=O)Nc1ccc(F)cc1 (stereo not given),37%[activator],-10%
CCCSCCCNC(=O)c1ccc2c(c1)sc1nc(-c3ccc(OCC)cc3)cn12,8%,-6%

# Other structures.
SMILES,2A firefly,2A Renilla
COc1cc(C2C3=C(CCCC3=O)OC3=C2C(=O)CCC3)ccc1OS(=O)(=O)c1ccc(C)cc1,14%,61%[activator]
COC(=O)c1ccc(NC(=O)CCNS(=O)(=O)c2cccc3nsnc23)cc1,1%,56%[activator]
COc1ccc(-c2nc(CS(=O)CC(=O)NCCCN3CCOCC3)c(C)o2)cc1OC (stereo not given),14%,3%
C=CCNc1nc(C(=O)OCC(=O)N(C)Cc2ccccc2)cs1,-2%,-10%
COc1ccc(-c2nc(C#N)c(N3CCCC3)o2)cc1OC,2%,-15%
Cc1ccc(-n2ncc3c(Nc4cccc(C)c4)ncnc32)cc1,226%[activator],1%
CCCCn1nc(C(=O)N(Cc2ccc3c(c2)OCO3)C2CCCC2)c2ccccc2c1=O,?,-16%
CC1=C(NC(=O)c2ccccc2)C(c2c[nH]c3ccccc23)n2ncnc2N1 (stereo not given),4%,8%
CCN(c1cc(C)cc(C)c1)S(=O)(=O)c1nnc(NC(=O)C2CCCCC2)s1,-13%,-8%
O=C(O)C(Sc1nccc2ccccc12)c1ccccc1 (stereo not given),71%[activator],-5%
COc1ccc(-c2nc(CS(=O)CC(=O)N3CCOCC3)c(C)o2)cc1 (stereo not given),16%,2%
Cc1ccc2c(COC(=O)c3cccc(S(=O)(=O)N(C)C)c3)cc(=O)oc2c1,-5%,-3%
COc1ccc(N2C(=O)C(CC(=O)Nc3ccccc3)N(CCC3=CCCCC3)C2=O)cc1 (stereo not given),-10%,190%[activator]
COc1ccc(NC(=O)c2nn(C3CCS(=O)(=O)C3)c3c2CCCC3)cc1 (stereo not given),-5%,-1%

# Assay outcomes: PubChem BioAssay, National Center for Advancing Translational Sciences (NCATS)
